Bioassay records: PubChem, Broad Institute
Ecoli rRNA inh: selective bacterial rRNA inhibition in E. coli; E. coli WT GFP vs humanized-ribosome RFP mutants, fluorescence, 24 h; stronger effect = lower value; DMSO median 0, no signal -100; GFP signal change (wild-type ribosome), % (test concentration not listed); hit rate 1.6% among 350,000; AID 720706;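 active = significant combined selectivity score with lowered wild-type GFP, culture density cut under 30%, mutant RFP and density less affected; inactive = any of these conditions unmet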; also: one replicate is shown; some compounds called inactive have numbers as strong as hits
FGF22 binding: binders of recombinant human FGF22 by thermal shift | Q9HCT0 | SYPRO orange fluorescence; percent of sucrose octasulfate shift, DMSO zero | calls only at 9.99 µM | hit rate 1.5% among 340,000;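 active = melting point raised past a set limit in the mean and every replicate; three in four hits are not shown here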
Target sequence (Q9HCT0 whole entry, looked up): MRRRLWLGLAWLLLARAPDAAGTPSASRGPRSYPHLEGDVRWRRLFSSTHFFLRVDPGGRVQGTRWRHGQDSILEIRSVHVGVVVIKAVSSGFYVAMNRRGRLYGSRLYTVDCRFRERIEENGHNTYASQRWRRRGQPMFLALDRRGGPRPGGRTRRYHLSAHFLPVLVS
Ecoli rRNA inh OD600: further read-out of Ecoli rRNA inh, marked with its call; OD600 change, %; measured here: OD600 growth;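 optical density of the mix in the first replicate; 0 = DMSO median and -100 = no signal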
Ecoli rRNA inh RFP: further read-out of Ecoli rRNA inh, marked with its call; RFP signal change, %; measured here: RFP humanized mutant strains;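 first replicate; 0 = DMSO median and -100 = no signal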
An asterisk follows results filed as active; i = inactive. Not all compounds are listed; rates above refer to the full screens.

SMILES	Ecoli rRNA inh	Ecoli rRNA inh OD600	Ecoli rRNA inh RFP	FGF22 binding
C[C@H](CO)N1C[C@H](C)[C@H](CN(C)CC2CCCCC2)Oc2c(NS(=O)(=O)c3ccc(Cl)cc3)cccc2C1=O	-1.6	-2.5	-0.5	i
CN1c2ccc(-c3ccccc3F)cc2[C@@H]2[C@@H](CCN2S(=O)(=O)c2ccccc2)[C@@H]1CO	3.1	-3.1	1.7	i
C[C@H](CO)N1C[C@H](C)[C@H](CN(C)C(=O)Nc2ccc(F)cc2)Oc2ccc(NC(=O)CCCCCC(=O)Nc3ccccc3N)cc2CC1=O	1.0	11.3	-2.0	i
O=C(C[C@@H]1C[C@H]2c3cc(NC(=O)NC4CCCCC4)ccc3O[C@H]2[C@@H](CO)O1)NCc1cccnc1	3.0	6.6	0.3	i
C[C@@H](O)C#Cc1ccc2c(c1)O[C@@H](CN(C)Cc1cccnc1)[C@@H](C)CN([C@@H](C)CO)S2(=O)=O	-2.9	-1.5	1.0	i
CCC(=O)N1CCCCN2[C@H](CO)[C@@H](c3ccc(C#Cc4ccccc4)cc3)[C@@H]2C1	-59.9	-75.7	-7.0	i
CC(=O)N(C)C[C@@H]1Oc2cc(-c3ccccc3F)ccc2S(=O)(=O)N([C@H](C)CO)C[C@H]1C	-4.8	-8.1	-1.1	i
CC(C)NC(=O)N1[C@H](CO)[C@@H]2c3ccccc3N(C(=O)c3ccncc3)C[C@@H]21	6.2	7.3	-0.9	i
Cc1ccc(S(=O)(=O)Nc2ccc3c(c2)C(=O)N([C@H](C)CO)C[C@H](C)[C@H](CN(C)C(=O)Nc2ccc(F)cc2)OCCCC[C@@H](C)O3)cc1	3.9	0.8	-0.8	i
COC(=O)C[C@@H]1CC[C@@H]2[C@@H](COc3ccc(NC(=O)C4CC4)cc3C(=O)N2C)O1	1.4	9.0	-0.9	i
C[C@@H]1CN([C@H](C)CO)C(=O)c2cc(NC(=O)C3CC3)ccc2O[C@H]1CN(C)Cc1ccc(Cl)c(Cl)c1	-53.2	-66.8	1.4	i
Cc1ccc(S(=O)(=O)Nc2ccc3c(c2)C(=O)N([C@H](C)CO)C[C@@H](C)[C@@H](CN(C)Cc2ccncc2)O3)cc1	-1.4	-2.2	0.2	i
O=C(NCCc1ccncc1)[C@H]1[C@H](CO)[C@H]2Cn3c(ccc(-c4cccnc4)c3=O)[C@H]2N1C(=O)C1CC1	2.9	1.9	-2.0	i
O=C(Nc1ccc(Cl)c(Cl)c1)N[C@H]1CC[C@H](CCn2cc(C3CCCC3)nn2)O[C@H]1CO	-60.4	-79.7	-14.4	i
COCC(=O)N(C)[C@H]1C[C@H]2c3[nH]c4c(-c5ccccc5)cccc4c3CCN2C(=O)[C@H]1[C@H](C)O	-26.7	-43.1	-9.4	i
Cc1ccc(-c2ccc([C@@H]3[C@@H](CO)N4CCCCN(C(=O)c5ccc(F)cc5)C[C@H]34)cc2)cc1	-60.5	-71.0	-13.9	i
CCCCc1c(-c2ccccc2OC)ncn1Cc1cccc(C)c1	-56.4	-78.5	-14.6	i
CO[C@@H](CN(C)Cc1ccc2c(c1)OCO2)[C@@H](C)CN(C(=O)Nc1ccc(F)cc1)[C@H](C)CO	-0.9	7.1	-1.1	i
CCC(=O)N[C@@H]1C=C[C@H](CC(=O)NCc2ccccc2F)O[C@H]1CO	-6.1	-9.1	0.5	i
C[C@H](CO)N1C[C@H](C)[C@@H](CN(C)Cc2ccc(Oc3ccccc3)cc2)Oc2c(NC(=O)Nc3ccc(C(F)(F)F)cc3)cccc2C1=O	-3.9	3.6	-0.5	i
C/C=C/c1ccc([C@H]2[C@@H](CO)N(C(=O)C3CC3)[C@H]2CNC(=O)NC(C)C)cc1	-1.0	-1.1	0.0	i
C[C@@H]1CN([C@H](C)CO)C(=O)c2cc(NC(=O)NC3CCCCC3)ccc2O[C@H]1CN(C)S(=O)(=O)c1cccs1	-3.4	-3.9	-1.2	i
CCN(CC)C(=O)c1ncn2c1C(=O)N[C@H](C)C2	0.3	2.3	-1.8	i
Cc1c(-c2ccccc2)nnn1-c1ccc(F)c(Cl)c1	2.4	17.6	0.6	i
O=C(N[C@@H]1CC[C@@H](CCn2cc(C3(O)CCCC3)nn2)O[C@@H]1CO)c1ccccc1F	1.6	8.2	-1.7	i
C[C@@H]1CN([C@@H](C)CO)C(=O)c2cc(NC(=O)CCCCCC(=O)Nc3ccccc3N)ccc2O[C@H]1CN(C)C(=O)Nc1ccc(F)cc1	0.7	-0.7	-2.1	i
C[C@H](CO)N1C[C@H](C)[C@H](CN(C)Cc2ccc(Cl)c(Cl)c2)Oc2c(NC(=O)C3CC3)cccc2C1=O	-7.3	-8.5	1.0	i
O=S(=O)(N[C@H]1CC[C@H](CCn2cc(-c3cccc(F)c3)nn2)O[C@H]1CO)c1ccccc1	-2.7	-3.6	-1.4	i
COc1ccc(CNC(=O)C[C@@H]2C[C@H]3c4cc(N(C)C)ccc4O[C@H]3[C@@H](CO)O2)cc1	0.3	-2.5	1.2	i
CCCC(=O)Nc1ccc2c(c1)C(=O)N(C)[C@H]1CC[C@@H](CC(=O)NCc3ccccc3F)O[C@@H]1CO2	0.2	-4.9	-0.6	i
C[C@H]1CN([C@@H](C)CO)C(=O)c2cccc(NS(C)(=O)=O)c2O[C@H]1CN(C)S(C)(=O)=O	7.3	0.2	-0.2	i
CCCC#Cc1cnc2c(c1)C(=O)N([C@H](C)CO)C[C@@H](C)[C@@H](CN(C)S(C)(=O)=O)O2	5.9	24.6	-2.5	i
Cc1ccc(S(=O)(=O)N(C)C[C@@H]2Oc3c(NS(=O)(=O)c4ccc(F)cc4)cccc3C(=O)N([C@H](C)CO)C[C@@H]2C)cc1	-3.2	-4.5	1.2	i
O=C(C(=O)N1CCC(CNS(=O)(=O)c2ccc(C(F)(F)F)cc2)CC1)c1cc2ccccc2o1	-7.0	-10.2	7.2	i
CN(C)C(=O)C[C@@H]1C=C[C@@H](NC(=O)C2CC2)[C@H](CO)O1	0.4	0.7	-0.4	i
Cc1noc(C)c1NC(=O)N(C)C[C@@H]1OCCCC[C@H](C)Oc2ccc(NS(=O)(=O)c3ccc(F)cc3)cc2C(=O)N([C@@H](C)CO)C[C@H]1C	-6.2	-3.0	4.7	i
COc1ccc(NC(=O)N2CC[C@@H]3[C@@H](CO)N(C)c4ccc(-c5ccccc5F)cc4[C@@H]32)cc1	-2.0	-2.7	-3.1	i
CCCNC(=O)N1C[C@@H](O)COC[C@@H]2O[C@@H](CC(=O)NCc3ccncn3)CC[C@H]21	-1.2	-3.9	0.2	i
Cc1ccc(S(=O)(=O)N(C)C[C@@H]2Oc3c(NC(=O)Nc4ccccc4)cccc3C(=O)N([C@H](C)CO)C[C@@H]2C)cc1	-5.5	-10.7	2.0	i
CNC(=O)C[C@H]1CC[C@H]2[C@@H](COc3ccc(NC(=O)Nc4ccccc4)cc3C(=O)N2C)O1	0.7	-2.8	-0.4	i
COc1ccc(NC(=O)N(C)C[C@@H]2Oc3ccc(NC(=O)Nc4ccccc4)cc3C(=O)N([C@H](C)CO)C[C@@H]2C)cc1	-2.2	-9.4	-1.7	i
Cc1noc(C)c1S(=O)(=O)Nc1ccc2c(c1)C(=O)N([C@@H](C)CO)C[C@H](C)[C@@H](CN(C)C(=O)C1CCCCC1)OCCCC[C@@H](C)O2	-2.5	-1.2	1.8	i
CCCC#Cc1ccc([C@@H]2[C@@H](C#N)N(C(=O)C3CC3)[C@H]2CO)cc1	-1.1	3.5	-0.8	i
C[C@H]1CN([C@@H](C)CO)C(=O)c2cc(NC(=O)NC3CCCCC3)ccc2O[C@H]1CN(C)S(=O)(=O)c1ccc(F)cc1	-1.7	0.6	2.3	i
O=C(CCN1CCCCC1)NCC[C@H]1CC[C@H](NC(=O)c2ccc(F)cc2)[C@H](CO)O1	0.6	0.0	-2.0	i

An excerpt of these results, field by field:
CN1c2ccc(-c3ccccc3F)cc2[C@@H]2[C@@H](CCN2S(=O)(=O)c2ccccc2)[C@@H]1CO
  Ecoli rRNA inh = 3.1; Ecoli rRNA inh OD600 = -3.1; Ecoli rRNA inh RFP = 1.7; FGF22 binding = i

C[C@H](CO)N1C[C@H](C)[C@H](CN(C)C(=O)Nc2ccc(F)cc2)Oc2ccc(NC(=O)CCCCCC(=O)Nc3ccccc3N)cc2CC1=O
  Ecoli rRNA inh = 1.0; Ecoli rRNA inh OD600 = 11.3; Ecoli rRNA inh RFP = -2.0; FGF22 binding = i

O=C(C[C@@H]1C[C@H]2c3cc(NC(=O)NC4CCCCC4)ccc3O[C@H]2[C@@H](CO)O1)NCc1cccnc1
  Ecoli rRNA inh = 3.0; Ecoli rRNA inh OD600 = 6.6; Ecoli rRNA inh RFP = 0.3; FGF22 binding = i

C[C@@H](O)C#Cc1ccc2c(c1)O[C@@H](CN(C)Cc1cccnc1)[C@@H](C)CN([C@@H](C)CO)S2(=O)=O
  Ecoli rRNA inh = -2.9; Ecoli rRNA inh OD600 = -1.5; Ecoli rRNA inh RFP = 1.0; FGF22 binding = i

Carrying on:
SMILES	Ecoli rRNA inh	Ecoli rRNA inh OD600	Ecoli rRNA inh RFP	FGF22 binding
CNC[C@H]1Oc2c(NC(=O)c3nc4ccccc4s3)cccc2C(=O)N([C@@H](C)CO)C[C@H]1C	-1.4	0.0	1.6	i
C[C@H]1CN([C@@H](C)CO)C(=O)Cc2cc(NS(C)(=O)=O)ccc2O[C@@H]1CN(C)S(=O)(=O)c1cn(C)cn1	3.3	9.0	-0.5	i
C[C@@H]1CN([C@H](C)CO)C(=O)c2cccc(NS(C)(=O)=O)c2O[C@@H]1CN(C)S(=O)(=O)c1ccccc1	1.4	5.0	-0.5	i
Cc1ccc(S(=O)(=O)Nc2ccc3c(c2)C(=O)N([C@H](C)CO)C[C@@H](C)[C@@H](CN(C)S(=O)(=O)c2ccc(Cl)cc2)OCCCC[C@H](C)O3)cc1	2.2	-0.3	-2.6	i
C[C@@H]1CCCCO[C@@H](CN(C)C(=O)NC2CCCCC2)[C@H](C)CN([C@@H](C)CO)C(=O)c2cc(NS(=O)(=O)c3ccccc3)ccc2O1	-9.7	-13.8	0.5	i
CCCN(C)C[C@H]1OCCCC[C@@H](C)Oc2ccc(NS(=O)(=O)c3ccc(F)cc3)cc2C(=O)N([C@H](C)CO)C[C@@H]1C	2.8	2.7	-2.4	i
C/C=C/c1cnc2c(c1)C(=O)N([C@@H](C)CO)C[C@H](C)[C@H](CN(C)C(=O)NCCC)O2	5.8	3.0	-1.3	i
C[C@@H]1CCCCO[C@@H](CN(C)C(=O)Nc2ccccc2)[C@@H](C)CN([C@H](C)CO)C(=O)c2cc(NS(=O)(=O)c3ccc(F)cc3)ccc2O1	1.0	-6.9	-3.9	i
Cc1ccc(S(=O)(=O)Nc2ccc3c(c2)CC(=O)N([C@H](C)CO)C[C@H](C)[C@H](CN(C)Cc2ccc(Cl)c(Cl)c2)O3)cc1	-0.3	-2.9	-0.5	i
C[C@H]1CN([C@@H](C)CO)C(=O)c2ccccc2-c2ccccc2CO[C@@H]1CN(C)Cc1ccccc1C(F)(F)F	0.4	1.9	-0.7	i
O=C(C[C@H]1C[C@@H]2c3cc(NC(=O)Cc4ccncc4)ccc3O[C@@H]2[C@H](CO)O1)NCc1ccc(-c2ccccc2)cc1	-5.7	-8.4	4.4	i
CCC(=O)Nc1ccc2c(c1)OC[C@@H](C)N(C(=O)CN1CCOCC1)C[C@H](C)[C@H](OC)CN(C)C2=O	1.7	2.3	-1.1	i
C/C=C/c1cnc2c(c1)C(=O)N([C@@H](C)CO)C[C@@H](C)[C@@H](CN(C)S(=O)(=O)c1ccc(C)cc1)O2	3.7	11.1	-0.8	i
CN1C(=O)c2cc(NC(=O)C3CC3)ccc2OC[C@H]2O[C@H](CC(=O)NCCN3CCCC3)CC[C@H]21	-0.3	0.3	-1.5	i
Cc1cccc(S(=O)(=O)N2C[C@@H]3[C@H](c4ccccc42)[C@@H](CO)N3CC2CCCC2)c1	-31.2	-67.3	10.2	i
COC(=O)C1=C(C)N(C)C(=NCc2ccc(OC)cc2)NC1c1ccc(Cl)cc1 (stereo not drawn)	3.8	4.0	8.0	i
C[C@@H]1CCCCO[C@@H](CN(C)S(=O)(=O)c2cn(C)cn2)[C@@H](C)CN([C@H](C)CO)C(=O)c2cc(NS(=O)(=O)c3ccc(F)cc3)ccc2O1	3.5	-4.3	1.1	i
C[C@@H]1CN([C@@H](C)CO)C(=O)Cc2cc(NC(=O)Cc3ccccc3)ccc2O[C@H]1CN(C)C(=O)NC1CCCCC1	1.0	1.2	0.2	i
CCCC(=O)N1CC2(CN(C(=O)Nc3cccc(F)c3)C2)c2c(n(C)c3cc(OC)ccc23)[C@@H]1CO	-3.6	-8.8	3.0	i
C[C@@H]1CCCCO[C@H](CN(C)Cc2ccncc2)[C@@H](C)CN([C@H](C)CO)C(=O)c2cc(NC(=O)CCCN(C)C)ccc2O1	2.8	6.7	-0.6	i
O=C(CC1CC1)N1[C@H](CO)[C@@H](c2ccccc2)C12CN(S(=O)(=O)c1ccccc1)C2	-4.7	-2.6	-0.2	i
C[C@H](CO)N1C[C@H](C)[C@H](CN(C)C(=O)c2ccc3c(c2)OCO3)Oc2cc(C#Cc3ccccc3F)ccc2S1(=O)=O	-6.2	5.8	-1.8	i
